# Polio RdRp inh = poliovirus RNA polymerase inhibition | poliovirus polymerase elongation, fluorescence polarization; hits give low values | % elongation, % (compound at 16.7 µg/mL) | AID 588519 | P03300 | 150,000 tested, 0.66% active; in the data active means % elongation below about 90%; further: some results filed as inactive read as strong as hits
# Mtb MbtI inh = MbtI salicylate synthase inhibition. purified MbtI enzyme, fluorescence intensity read-out. P9WFX0. inhibition, %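 (about 17 µg/mL by stock and volumes)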. 100,000 tested, 0.89% active. AID 493033;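 active means above 50% in both replicates, above 80% if mildly self-fluorescent; inactive means the rest, strongly fluorescent compounds included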;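 further: 0% = mean of negative and 100% = mean of positive controls; one replicate is shown; some compounds called inactive have numbers as strong as hits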
# Target sequence (P9WFX0 whole entry, looked up): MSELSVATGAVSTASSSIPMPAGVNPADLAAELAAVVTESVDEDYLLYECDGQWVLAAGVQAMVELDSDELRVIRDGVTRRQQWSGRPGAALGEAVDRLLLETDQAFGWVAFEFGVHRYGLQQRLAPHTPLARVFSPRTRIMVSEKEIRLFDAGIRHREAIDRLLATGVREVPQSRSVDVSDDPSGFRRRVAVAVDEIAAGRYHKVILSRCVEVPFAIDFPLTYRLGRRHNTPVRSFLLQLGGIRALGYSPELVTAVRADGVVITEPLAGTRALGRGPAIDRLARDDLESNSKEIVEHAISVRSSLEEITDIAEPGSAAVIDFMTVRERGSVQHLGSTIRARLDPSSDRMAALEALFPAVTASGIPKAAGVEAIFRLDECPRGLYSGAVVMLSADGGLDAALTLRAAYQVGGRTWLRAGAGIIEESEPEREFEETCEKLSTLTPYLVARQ
# Mtb MenB inh = Mtb MenB enzyme inhibition. P9WNP5. MenB enzyme assay, absorbance read-out; some hits fall short of the stated cut. inhibition, %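 (about 12 µg/mL by stock and volumes)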. AID 540299. 100,000 tested, 0.43% active;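 active means mean of two replicates above 30%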;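 further: 0% = no compound and 100% = wells with inactive enzyme; the first replicate is given; strong numbers were not always called active; inactives centre near -10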
# Target sequence (P9WNP5 whole entry, looked up): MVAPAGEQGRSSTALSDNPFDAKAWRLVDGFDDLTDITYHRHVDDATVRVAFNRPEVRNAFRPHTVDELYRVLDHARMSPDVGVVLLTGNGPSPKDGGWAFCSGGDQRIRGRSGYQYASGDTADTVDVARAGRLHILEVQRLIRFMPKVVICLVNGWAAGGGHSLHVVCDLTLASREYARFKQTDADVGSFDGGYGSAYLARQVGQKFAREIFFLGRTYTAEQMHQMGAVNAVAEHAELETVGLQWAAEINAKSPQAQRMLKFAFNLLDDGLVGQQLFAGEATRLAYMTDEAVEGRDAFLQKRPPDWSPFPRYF
# Polio RdRp inh intensity = further read-out of Polio RdRp inh, marked with its call; % elongation; measured here: total intensity read-out; formula for this scale not given here;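 total fluorescence in place of polarization; lower means less elongation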
# * = called active by the depositor; i = inactive; x = no result given; & = joins results of further samples.
SMILES,Polio RdRp inh,Polio RdRp inh intensity,Mtb MbtI inh,Mtb MenB inh
CCc1c(CN2CCN(Cc3ccccc3)CC2)csc1C,102.0,102.0,-4.5,-4.8
O=C(NCCCN1CCCC1=O)Nc1cccc(C(F)(F)F)c1,96.0,98.0,-2.4,-4.7
O=C(NC1CCCC1)c1cc2c(Cl)nc3ccccc3c2s1,103.0,105.0,1.9,-4.6
NS(=O)(=O)c1cc(C(=O)OCC(=O)N2CCCC2=O)ccc1Cl,103.0,101.0,-11.6,3.2
Cc1n[nH]c(C)c1S(=O)(=O)N1CCC(C(=O)N(C)Cc2cccc(Cl)c2Cl)CC1,103.0,104.0,-13.9,-16.9
Cc1ccccc1OCCn1c(O)c(N=O)c2ccccc21,106.0,98.0,10.7,-0.8
CN(C)CCOC(c1ccccc1)c1ccccc1,101.0&99.0,98.0&101.0,-15.8&-17.8,-4.3&1.2
O=C(COC(=O)CSc1ccc2ccccc2c1)NC1CCCC1,100.0,103.0,-10.7,x
O=c1oc2ccc(Cl)cc2nc1/C=C(\O)c1ccco1,103.0,117.0,2.9,1.5
CCC1(c2ccccc2)NC(=S)N(C)N1 (configuration not stated),100.0,102.0,4.9,-12.9
N#Cc1ccc(OCC(=O)Nc2ccc(-c3nnc4n3CCCCC4)cc2)cc1,109.0,104.0,7.2,12.0
CC(=O)N1CCN(S(=O)(=O)c2cccc(C(=O)OCC(=O)c3cc(C)n(-c4ccc5c(c4)OCO5)c3C)c2)CC1,104.0,108.0,41.9,-13.0
CCC(C)Nc1ncnc2cc(OC)c(OC)cc12 (configuration not stated),103.0,102.0,1.7,-27.7
NS(=O)(=O)c1ccc(CCNC(=O)CC2=NS(=O)(=O)c3ccccc3N2)cc1,98.0,101.0,-8.8,-12.7
CC(C)c1ccccc1NC(=O)CN1C(=O)c2ccccc2C1=O,97.0,98.0,x,-21.7
CN(C)CCN(C)Cc1ccccc1C(F)(F)F,99.0,102.0,-8.6,-3.0
COc1cc(CN2CCC(N)CC2)cc(OC)c1OC,102.0,99.0,-4.0,-6.9
O=C(CN1C(=O)c2cccc3cccc1c23)Nc1ccccc1,102.0,104.0,1.2,3.1
OC(c1ccccc1)c1ccc2c(c1)c1c3n2CCNC3CCC1 (configuration not stated),102.0,105.0,-22.0,-2.5
CNCCCNc1ccnc2cc(Cl)ccc12,102.0,102.0,i,-27.9
CC(=O)N1N=C(c2c(-c3ccccc3)c3cc(C)ccc3[nH]c2=O)CC1c1ccco1 (configuration not stated),100.0,104.0,72.8,-39.5
CCCC(=O)Nc1ccc(Cl)c(NC(=O)c2cccnc2Cl)c1,106.0,98.0,-6.2,-29.2
Cc1c(CNCCc2c[nH]c3ccccc23)c(C(=O)O)c(C)n1Cc1ccc(F)cc1Cl,102.0,106.0,-8.5,-14.0
COc1ccccc1N1CCN(CCCCNC(=O)c2ccc(Cl)cc2)CC1,101.0,98.0,-7.5,-2.1
Cc1ccc(N(C(=O)Cn2nnc(-c3ccc(C)o3)n2)C(C(=O)NCC2CCCO2)c2ccc(F)cc2)cc1 (configuration not stated),101.0,102.0,-7.6,14.4
O=C(CN1C(=O)/C(=C/c2ccccc2)Sc2ccccc21)N1CCCC1,104.0,94.0,8.5,-11.3
O=C(C(Sc1nnnn1C1CCCC1)c1ccccc1)N1CCOCC1 (configuration not stated),102.0,106.0,-7.4,-15.0
O=C(OCc1nc2ccc(Cl)cc2n1CCO)c1ccccc1,108.0,125.0,-5.9,-1.2
O=S(=O)(Nc1ccc(F)cc1)c1cccc2cccnc12,98.0,102.0,5.3,0.7
Cc1sc2cc(-[n+]3ccc(O)cc3)ccc2[n+]1-c1ccccc1,100.0,103.0,94.8*,x
COc1ccc(CN2C(=O)c3cccnc3C2=O)cc1S(=O)(=O)N1CCCCC1,108.0,98.0,-1.5,-42.1
Cc1nn(-c2cccc(C(F)(F)F)c2)c2sc(C(=O)O)cc12,102.0,102.0,-5.6,-12.1
COC(=O)c1oc2cc(C)ccc2c1C,103.0,106.0,9.7,-20.1
CCCc1[nH]nc2c1C(c1cc(OC)c(OC(C)=O)c(OC)c1)C(C#N)=C(N)O2 (configuration not stated),109.0,115.0,x,-10.8
Cc1ccc(C)c(NC(=S)NC2CC3CCC(C2)N3Cc2ccco2)c1 (configuration not stated),102.0,101.0,2.8,-5.6
CCCNS(=O)(=O)c1ccc2c(c1)n(C)c(=O)c(=O)n2C,102.0,106.0,6.2,-22.9
Cn1nc(C(=O)NC(c2ccccc2)c2ccccc2)ccc1=O,103.0,91.0,6.3,-10.1
COC(=O)CSc1nnc(C2CCCCC2)n1Cc1ccccc1,101.0,103.0,-2.5,-21.9
COc1ccc(/C=C/C(=O)OCC(=O)N2CC(C)CC(C)C2)cc1 (configuration not stated),107.0,113.0,4.6,-2.1
Cc1nnc(SCN2C(=O)c3ccccc3C2=O)n(N)c1=O,108.0,101.0,-2.3,-12.7
Cc1ccc(NC2(C#N)C(=O)Nc3ccccc32)cc1C (configuration not stated),105.0,102.0,4.9,-31.2
CCSC1=C(C#N)C(=O)NC(/C=C/c2ccccc2)S1 (configuration not stated),100.0,96.0,12.8,-18.5
CC1CN(c2ccccc2)NC1=O (configuration not stated),101.0,100.0,-8.6,2.2
Cc1onc(-c2ccccc2Cl)c1C1=NCCO1,104.0,111.0,-12.4,-2.4
CC1(C)CC2CC(C)(CN2C(=O)CSc2nn3c(=O)c(C(C)(C)C)nnc3s2)C1 (configuration not stated),103.0,105.0,-7.7,-26.1
CC1(C)C2CC[C@@](C)(C2)C1NS(=O)(=O)c1ccc(-c2cc(C(F)(F)F)on2)s1 (some centres not stated),106.0,108.0,-6.4,-6.5
NCCN1C(=O)S/C(=C\c2ccc(Cl)c(Cl)c2)C1=O,94.0,89.0,104.7,-40.5
COc1cccc(NC(=O)NCCCNc2nc3cc(C)cc(C)c3cc2C#N)c1,103.0,101.0,52.5,-34.1
COc1ccc(N=Cc2cc(Br)ccc2O)c(S(=O)(=O)N2CCOCC2)c1,101.0,108.0,-10.4,-12.6
COc1ccc(C=C2C(=O)N(C)C(=S)N(C)C2=O)c(C)c1,98.0,98.0,5.5,-56.0
# Continued.
SMILES,Polio RdRp inh,Polio RdRp inh intensity,Mtb MbtI inh,Mtb MenB inh
CC(C)Cn1c(CC(C)(C)C)nc2ccccc21,100.0,102.0,-6.0,-25.5
O=C1CN(Cc2ccccc2)CC(=O)N1CCc1ccccc1,97.0,104.0,-6.6,-5.4
O=C(CNC1CCCCC1)N1CCC2(CC1)OCCO2,103.0,104.0,10.6,26.5
CN1CCC(N(C)C(=O)COc2ccccc2Cl)CC1,104.0,111.0,-2.0,-0.2
COc1cc2cc(C(=O)O)cc(-c3ccc(C)cc3)c2cc1OC,100.0,97.0,127.2,-21.4
COCc1cc(C)nc2sc(C(=O)Nc3ccc(S(N)(=O)=O)cc3)c(N)c12,101.0,101.0,2.5,-29.5
c1c2c(cc3sc(N4CCCCC4)nc13)OCCO2,101.0,107.0,-0.3,-33.2
Cc1ccc(-n2c(SCC3NS(=O)(=O)N=C4CCCCCN43)nnc2-c2ccccc2)cc1C (configuration not stated),109.0,106.0,4.8,-19.8
Nc1ncnc2c1ncn2CCNCc1ccccc1,102.0,106.0,-9.6,1.5
Cc1ccc(CC/C=N/NC(N)=S)o1,102.0,103.0,8.8,14.9
CCc1ccccc1NC(=O)C(CC)n1c2ccccc2c2nc(=O)cc(C)n21 (configuration not stated),104.0,102.0,18.2,-13.7
Cc1ccc(C(=O)NC2CCSC2=O)cc1 (configuration not stated),100.0,101.0,-10.2,-5.6
CCN1CCc2c(sc(N)c2C(=O)OC)C1,95.0,119.0,35.4,0.7
O=C(O)Cc1ccsc1,108.0,106.0,-1.4,-2.9
O=C(NCc1csc2ccc(Cl)cc12)c1ccc(C(F)(F)F)cc1,105.0,110.0,-13.7,-2.7
CCOC(=O)N1CCc2c(sc3c2c(=O)n(Cc2ccccc2)c(=O)n3CC(=O)NC(C)CC)C1 (configuration not stated),102.0,104.0,-4.3,-6.1
CCN=c1scc(C)n1/N=C/c1ccc2c(c1)OCCO2,96.0,104.0,8.1,-84.5
C=CCNC(=S)N(Cc1ccccc1O)CC1CCCO1 (configuration not stated),103.0,107.0,-3.6,-22.0
CCCCN(CC)C(=O)c1ccc(Cl)c(Cl)c1,100.0,103.0,-5.8,6.0
N[C@@H](Cc1ccc(O)c(O)c1)C(=O)O,99.0&100.0,103.0&102.0,-38.6&-24.0,-0.4&4.2

# Filtered by structure, those above with a Cl atom.
SMILES,Polio RdRp inh,Polio RdRp inh intensity,Mtb MbtI inh,Mtb MenB inh
O=C(NC1CCCC1)c1cc2c(Cl)nc3ccccc3c2s1,103.0,105.0,1.9,-4.6
NS(=O)(=O)c1cc(C(=O)OCC(=O)N2CCCC2=O)ccc1Cl,103.0,101.0,-11.6,3.2
Cc1n[nH]c(C)c1S(=O)(=O)N1CCC(C(=O)N(C)Cc2cccc(Cl)c2Cl)CC1,103.0,104.0,-13.9,-16.9
O=c1oc2ccc(Cl)cc2nc1/C=C(\O)c1ccco1,103.0,117.0,2.9,1.5
CNCCCNc1ccnc2cc(Cl)ccc12,102.0,102.0,i,-27.9
CCCC(=O)Nc1ccc(Cl)c(NC(=O)c2cccnc2Cl)c1,106.0,98.0,-6.2,-29.2
Cc1c(CNCCc2c[nH]c3ccccc23)c(C(=O)O)c(C)n1Cc1ccc(F)cc1Cl,102.0,106.0,-8.5,-14.0
COc1ccccc1N1CCN(CCCCNC(=O)c2ccc(Cl)cc2)CC1,101.0,98.0,-7.5,-2.1
O=C(OCc1nc2ccc(Cl)cc2n1CCO)c1ccccc1,108.0,125.0,-5.9,-1.2
Cc1onc(-c2ccccc2Cl)c1C1=NCCO1,104.0,111.0,-12.4,-2.4
NCCN1C(=O)S/C(=C\c2ccc(Cl)c(Cl)c2)C1=O,94.0,89.0,104.7,-40.5
CN1CCC(N(C)C(=O)COc2ccccc2Cl)CC1,104.0,111.0,-2.0,-0.2
O=C(NCc1csc2ccc(Cl)cc12)c1ccc(C(F)(F)F)cc1,105.0,110.0,-13.7,-2.7
CCCCN(CC)C(=O)c1ccc(Cl)c(Cl)c1,100.0,103.0,-5.8,6.0

# Next records follow:
SMILES,Polio RdRp inh,Polio RdRp inh intensity,Mtb MbtI inh,Mtb MenB inh
CCc1nc2ccccc2c(C(=O)OCC(=O)NCc2ccccc2)c1C,101.0,105.0,-0.3,x
CCn1c(SCC(=O)OCC(=O)N=c2sccn2Cc2ccc(C)cc2)nnc1-c1ccco1,108.0,107.0,1.0,-34.5
S=c1cc(-c2ccccc2)sc2ccccc12,102.0,104.0,2.9,x
Cc1ccc(C)c(CN2C(=O)c3ccccc3S(=O)(=O)c3ccc(C(=O)NCCN(C)C)cc32)c1,100.0,107.0,5.5,-6.1
COc1ccc(-c2[nH]ncc2Oc2ccccc2)c(O)c1,103.0,102.0,-2.1,-45.8
O=C(O)c1ccc(-c2cn3cccnc3n2)cc1,91.0,103.0,97.8,15.4
CCC1(CC)NC(=O)N(Cc2nnc(-c3ccccc3Br)o2)C1=O,98.0,91.0,-30.9,-59.7
Cc1c(O)c(C(=O)c2nn[nH]n2)c(=O)n(-c2ccccc2)c1-c1ccccc1,102.0,100.0,0.9,-3.2
CC(=O)Nc1ccc(C(=O)OCC(=O)c2ccc3c(c2)OCCO3)cc1,105.0,106.0,7.2,0.4
O=C1CSC(=O)N1CC(O)Cn1c2ccccc2c2ccccc21 (configuration not stated),103.0,102.0,-88.8,-37.8
Cc1ccc(-n2ncc3c2ncn2nc(Cc4ccccc4)nc32)cc1,107.0,108.0,2.9,-7.0
O=C(NN1C(=O)c2ccccc2C1=O)c1cccc(Cl)c1,101.0,102.0,-2.9,7.2
CC1CCc2c(sc3nc(CSc4n[nH]c(N)n4)[nH]c(=O)c23)C1 (configuration not stated),109.0,101.0,3.8,-11.6
O=c1oc2cc(Oc3ncccn3)ccc2c2c1CCCCC2,105.0,103.0,11.7,-15.1
O=S(=O)(/C=C/c1ccccc1)NNc1ccccc1,99.0,103.0,21.4,3.5
CC(Sc1nnc(-c2cc3ccccc3o2)n1-c1ccccc1)C(=O)O (configuration not stated),100.0,101.0,-69.5,-72.0
Cc1ccc2c(C)c(-c3ccccc3)c(=O)oc2c1,103.0,109.0,x,-6.2
Cc1oc(C)c(C(=O)Nc2ccc(CC(=O)O)cc2)c1C(=O)Nc1ccc(CC(=O)O)cc1,100.0,101.0,-3.4,4.8
CC(C)C(=O)N(c1ccc(Cl)cc1)C1C=CS(=O)(=O)C1 (configuration not stated),102.0,103.0,-0.4,-6.9
O=C(c1cc(S(=O)(=O)N2CCCCC2)c(Cl)cc1Cl)N1CCCCC1,102.0,112.0,-9.2,x
O=C(COc1ncnc2ccccc12)Nc1ccc(Cl)cc1,102.0,104.0,-10.1,-12.7
Cc1cccc(C(=O)Nc2cccnc2)c1,102.0,102.0,-9.9,-6.2
O=C(O)CCN1N=C(c2ccccc2)/C(=C\c2cn(-c3ccccc3)nc2-c2cc3ccccc3o2)C1=O,104.0,102.0,-54.2,-5.0
C1CNC2NCCNC2N1 (configuration not stated),103.0,105.0,-2.4,-36.3
O=C(Nc1ccc(Cl)cc1)c1cn(-c2ccccc2)nc1-c1cccnc1,103.0,109.0,19.8,x
Cc1nc2ccccc2c(=O)n1CCO,100.0,102.0,7.5,-21.8
Cc1cc(OCC(=O)NC(Cc2c[nH]c3ccccc23)C(=O)O)cc(C)c1Cl (configuration not stated),103.0,97.0,23.5,5.0
CN1C(=O)/C(=C/c2cn(CC(=O)N3CCCC3)c3ccccc23)C(=O)NC1=S,99.0,106.0,-8.0,-5.5

# Screening results deposited in PubChem BioAssay by ICCB-Longwood Screening Facility, Harvard Medical School.
